Screening data (PubChem BioAssay)
MT1-MMP act inh – blockers of MT1-MMP proenzyme processing, primary screen, HT1080 RFP-PRO-GFP cells, GFP/RFP fluorescence. GFP/RFP ratio fluorescence, overnight; percent of plate control window, DMSO zero. GFP/RFP ratio change, % at 20 µM. hit rate 0.061% among 360,000. AID 651647, 2012. Matrix metalloproteinase-14 (Homo sapiens), P50281;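 active = GFP/RFP ratio change of at least 30% with cell ATP level not reduced by more than half and red fluorescence within 50% of control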; also: strong numbers were not always called active
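Material – HT1080 RFP-PRO-GFP cells · Control set – DMSO wells and RFP-L50D-GFP cells · Incubation – overnight cell settling, then overnight compound exposure, 37 °C, 5% CO2 · Compound dosing – single-point 20 µM compound, 1% DMSO · Read-out – GFP/RFP fluorescence ratio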
Env fusion inh – inhibitors of HIV-1 Env-driven cell-cell fusion, primary screen, HeLa-JRFL effector, CEM21 target cells, luciferase. hit rate 1.1% among 360,000. AID 651610, 2012. inhibition, % at 12.3 µM;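 active = mean replicate inhibition score of at least 50 and every replicate individually at or above 50; inconclusive = only one of the two criteria met; inactive = mean below 50 and not all replicates reaching 50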;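 also: 0% = plate neutral controls and 100% = maraviroc near 300 nM; one replicate is shown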
Rce1 inhib – yeast Rce1p protease inhibitors, primary screen, biochemical, fluorescence, cell-free homogeneous; AID 2563, 2010; yeast membranes, quenched prenylated peptide cleavage fluorescence; CAAX prenyl protease 2 (Saccharomyces cerevisiae (strain ATCC 204508 / S288c)), Q03530; hit rate 0.27% among 290,000; calls only;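 active = fall in fluorescence gain of 50% or more versus controls, with final raw signal at or below 3038400; inconclusive = same 50% fall but final raw signal above 3038400; inactive = fall in fluorescence gain under 50%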;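 also: plate controls were neutral control wells for no effect and wells lacking membranes for full effect; tested at 10 µM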
CSC inhib – cancer stem cell viability inhibitors, primary screen, luminescence; cancer stem cell-like cells viability; inhibition, % at 7.5 µM; hit rate 1.1% among 300,000; AID 2717, 2010;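 active = mean at 75% or more and at least half the replicates too; inconclusive = mean and replicates disagree; tested in HMLE shEcad cells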;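 also: 0% = median of negative and 100% = median of positive control wells; the first replicate is given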
PABP polyA inh – PABP poly(A) RNA binding inhibitors, primary screen, biochemical, fluorescence polarization, uHTS; Polyadenylate-binding protein 1 (Homo sapiens), P11940; AID 2014, 2009; hit rate 1% among 290,000; inhibition, % at 35 µM;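 active = 50% or more with normal probe brightness, or confirmed in later tests; inconclusive = above 50% with abnormal brightness, or retests that disagree; inactive = below 50% or failed in later tests; about a fifth of its hits are not listed in these tables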;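 also: calls also rest on retests at 20 µM and on dose response follow-up; controls were probe without protein and protein plus probe with vehicle; some compounds called inactive have numbers as strong as hits; many hits fall short of the cut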
Target sequence (P11940 whole entry, looked up): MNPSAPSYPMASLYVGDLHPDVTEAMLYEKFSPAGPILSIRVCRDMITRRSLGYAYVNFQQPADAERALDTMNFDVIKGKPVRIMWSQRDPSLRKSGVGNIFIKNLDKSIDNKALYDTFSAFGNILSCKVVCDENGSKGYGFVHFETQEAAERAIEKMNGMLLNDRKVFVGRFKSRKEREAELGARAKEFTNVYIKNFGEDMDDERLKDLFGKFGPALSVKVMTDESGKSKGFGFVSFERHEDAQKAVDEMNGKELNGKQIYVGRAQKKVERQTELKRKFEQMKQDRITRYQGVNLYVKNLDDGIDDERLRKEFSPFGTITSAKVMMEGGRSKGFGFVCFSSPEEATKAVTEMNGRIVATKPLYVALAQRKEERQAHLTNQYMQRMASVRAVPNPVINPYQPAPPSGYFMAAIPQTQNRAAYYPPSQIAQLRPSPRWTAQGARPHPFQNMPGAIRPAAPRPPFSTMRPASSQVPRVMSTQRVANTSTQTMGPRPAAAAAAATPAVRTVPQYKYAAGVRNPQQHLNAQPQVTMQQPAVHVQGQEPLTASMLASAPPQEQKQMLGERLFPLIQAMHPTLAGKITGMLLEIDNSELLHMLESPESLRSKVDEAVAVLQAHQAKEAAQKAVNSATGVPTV
Yeast UUG start – modulators of yeast start codon fidelity, primary screen, whole organism, S. cerevisiae, single point, plate reader | S. cerevisiae UUG-firefly luciferase reporter, luminescence/redox ratio | activity score, % at 18.7 µM | hit rate 0.13% among 350,000 | AID 602363, 2012;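 active = replicate mean at a twofold rise or more, about +100% in these data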;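 also: firefly luciferase made from a UUG start codon reports start codon fidelity; reporter light over untreated wells divided by growth signal over untreated wells; some hits fall short of that in this replicate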
eIF4H FP inh – human eIF4H binding inhibitors, primary screen, translation initiation inhibitor project, biochemical, uHTS, fluorescence polarization | eIF4H fluorescence polarization binding assay | inhibition, % at 35 µM | hit rate 0.94% among 290,000 | AID 2012, 2009;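 active = 50% or more with normal probe brightness, or confirmed in later tests; inconclusive = above 50% with abnormal brightness, or retests that disagree; inactive = below 50% or failed in later tests; about a fifth of its hits are not listed in these tables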;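 also: calls also rest on retests at 20 µM and on dose response follow-up; 0% = protein and probe with vehicle and 100% = probe without protein; strong numbers were not always called active; many hits fall short of the cut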
MT1-MMP act inh RFP – second read-out of MT1-MMP act inh, no call of its own (marks repeat the call); RFP signal change, %; measured here: RFP expression control read;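 0 = vehicle wells; hits needed this value within 50% of zero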
The depositor's hits bear a star; i = inactive; ? = inconclusive; · = no result given.

SMILES	MT1-MMP act inh	MT1-MMP act inh RFP	Env fusion inh	Rce1 inhib	CSC inhib	PABP polyA inh	Yeast UUG start	eIF4H FP inh
CCCCOc1ccc(/C=N/NC(=O)C2CCCNC2=O)cc1 (stereo unspecified)	1	0	2	i	-11	-15	·	2
CCOC(=O)c1ccc(NC(=O)C(C)N2C(=O)c3ccccc3C2=O)cc1 (stereo unspecified)	-1	0	·	·	-24	-6	-6	3
Cc1ccc(NC(=O)COC(=O)Cn2cnc3c2c(=O)n(C)c(=O)n3C)cc1Cl	-1	-2	-1	i	-8	-10	9	7
COc1ccc2sc(N(CCN(C)C)C(=O)c3ccc4ccccc4c3)nc2c1	1	3	8	i	-5	8	0	0
O=C(NCc1ccccc1)c1cc(-c2ccco2)on1	1	5	·	i	2	2	-16	0
COc1ccc(CNC(=O)CSc2nc(-c3ccccc3)cc(-c3cccs3)c2C#N)cc1	7	-4	?	i	1	-2	-12	0
CC(C)(C)C(=O)N1CCN(c2c(Cl)cccc2[N+](=O)[O-])CC1	10	3	4	i	-4	-6	-6	-4
Cc1cc(F)c(F)cc1C(=O)N1CCCC1	-5	-1	18	·	-7	-9	·	4
FC(F)(F)c1cccc(Cc2noc(CN3CCCC(CN4CCCC4)C3)n2)c1 (stereo unspecified)	2	-6	-6	i	0	-10	-9	6
Cc1ccccc1S(=O)(=O)NC(=O)C1(C)CCN1C(=O)C(C)(C)c1ccccc1 (stereo unspecified)	-4	4	-15	·	·	·	20	·
Cc1noc(C)c1S(=O)(=O)N1CCCC(C(=O)N2CCN(C3CCCCC3)CC2)C1 (stereo unspecified)	1	4	-32	i	16	-12	-7	2
O=C(Nc1ccc(N2CCCCC2)cc1)c1cccnc1Cl	-8	-1	·	i	-8	-4	18	-7
O=C(CC(NC(=O)C(F)(F)F)c1ccccc1)Nc1nnc(CCc2ccccc2)s1 (stereo unspecified)	6	-1	-14	i	0	-22	·	-14
Cc1ccc(CN2CCC(n3nccc3NC(=O)c3ccc4c(c3)OCO4)CC2)o1	-2	2	7	i	-4	5	-9	8
CCOc1ccc(N(CC(=O)NC2CCCC2)C(=O)CCC(=O)Nc2ccccn2)cc1	5	4	·	·	-9	-1	-9	-3
COc1ccc(CNC(=O)NC(C)(C)c2cccc(C(C)(C)NC(=O)NCc3ccc(OC)cc3)c2)cc1	2	-1	·	i	10	-3	-15	0
COc1ccc(CN2CCNC(=O)C2CC(=O)NCc2cccc(C)n2)c(OC)c1 (stereo unspecified)	3	3	7	i	-16	7	-9	1
O=c1cc(-c2cccs2)oc2ccc(Cl)cc12	-3	-2	i	i	·	5	-11	0
CC(C)Oc1ccc(CNC(=O)Cn2c(=O)c3cccn3c3cccnc32)cc1	3	2	0	i	29	5	-13	0
Cn1c(-c2ccc(=O)[nH]c2)nc2ccccc21	2	5	-198	i	2	3	·	-3
COc1cccc(NC(=O)c2csc3c2CCCC3)c1	-2	-3	-23	i	-10	-5	4	-18
S=C(NC1CCCCC1)c1ccc2c(c1)OCO2	1	3	·	i	0	7	·	2
O=C(Nc1cccnc1Cl)c1cc2ccccc2o1	-2	-1	-57	i	-11	-2	-18	-12
COC(=O)C1=C(C)N(Cc2ccccc2)C(=O)N[C@H]1c1ccc(Br)cc1	7	-4	1	i	-6	8	13	-7
CC(Sc1nnnn1-c1ccc(Cl)cc1)C(=O)NCC(=O)Nc1ccc(F)c(F)c1F (stereo unspecified)	9	-8	22	i	5	-9	·	-7
Cc1noc(C)c1S(=O)(=O)N1CCC(C(=O)Nc2ccc(OC(F)(F)F)cc2)CC1	7	-10	1	i	11	-4	-14	2
CC(=O)c1nnn(-c2nc(N3CCCC3)nc(N(c3ccccc3)c3ccccc3)n2)c1C	-4	-2	8	i	-6	-3	-20	-8
CC(=O)Nc1ccccc1-c1nn[nH]n1	0	4	·	i	-9	3	-8	1
CCOc1ccc(-c2nnc(N(CC)C(=O)C3CCC3)s2)cc1	-3	-3	·	i	18	-4	5	-2
CCCCc1ccc(/C(C)=N/NC(=O)C2CCCC2)cc1	2	4	·	i	-1	-5	-9	11
NS(=O)(=O)c1ccc(NC(=O)CSc2nnc(NC3CC3)s2)cc1	-1	3	18	·	·	·	-16	·
N#C/C(=C\c1cccnc1)C(=O)Nc1ccccc1	-10	4	-12	·	-4	0	14	24
Cc1cc(C(=O)NC2CCCc3c2cnn3-c2ccc(C)c(C)c2)n(C)n1 (stereo unspecified)	5	-30	·	i	13	4	-16	-7
Cc1cc(NS(=O)(=O)c2ccc(NC(=O)c3ccc(Br)o3)cc2)nc(C)n1	5	5	6	i	-1	-18	·	5
O=C(OCc1cc(-c2ccccc2)no1)c1ccc2ccccc2n1	3	-2	-73	i	4	10	-13	-8
NS(=O)(=O)c1ccc(NC(=O)COC(=O)c2ncc(Cl)c(Cl)c2Cl)cc1	-4	-3	5	·	-6	·	·	·
CCOc1ccccc1C(=O)Nc1ccccc1C(N)=O	4	-1	1	i	-6	13	-14	2
O=C(NC1(O)C(=O)c2ccccc2C1=O)c1ccccc1	5	9	·	i	-1	26	·	-4
O=C(CN(CC1CCCO1)C(=O)CCC(=O)Nc1nccs1)NCC1CCCO1 (stereo unspecified)	-4	-3	·	i	-9	-7	-10	6
O=C(CCc1c[nH]c2ccccc12)OCc1ccc(Br)cc1	-2	-1	-12	i	-11	1	-15	14
COc1ccccc1S(=O)(=O)N1CCN(S(=O)(=O)c2cccs2)CC1	-4	0	-7	·	·	·	-10	·
Cc1ccc(Nc2nc(N)nc(CSc3nc4ccccc4s3)n2)cc1	-10	-14	?	i	22	-8	-26	-13
Cc1cc(C(=O)CSc2nnc(-c3cccs3)n2Cc2ccccc2)c(C)n1C	-5	-11	·	i	12	-2	-1	-3
COc1cc2c(-c3ccc(O)cc3)nc3c(c(C)nn3-c3ccccc3)c2cc1OC	-8	-16	·	·	88*	22	1	14
CCc1noc(C)c1C(=O)Oc1ccc(N(C)S(=O)(=O)c2ccc(C)c(C)c2)cc1	4	-6	11	i	47	·	·	·

At a glance, some entries already given:
SMILES	MT1-MMP act inh	MT1-MMP act inh RFP	Env fusion inh	Rce1 inhib	CSC inhib	PABP polyA inh	Yeast UUG start	eIF4H FP inh
N#C/C(=C\c1cccnc1)C(=O)Nc1ccccc1	-10	4	-12	·	-4	0	14	24
Cc1cc(C(=O)NC2CCCc3c2cnn3-c2ccc(C)c(C)c2)n(C)n1 (stereo unspecified)	5	-30	·	i	13	4	-16	-7

Retrieved by structure from above:
SMILES	MT1-MMP act inh	MT1-MMP act inh RFP	Env fusion inh	Rce1 inhib	CSC inhib	PABP polyA inh	Yeast UUG start	eIF4H FP inh
Cc1cc(F)c(F)cc1C(=O)N1CCCC1	-5	-1	18	·	-7	-9	·	4
N#C/C(=C\c1cccnc1)C(=O)Nc1ccccc1	-10	4	-12	·	-4	0	14	24

Further records:
SMILES	MT1-MMP act inh	MT1-MMP act inh RFP	Env fusion inh	Rce1 inhib	CSC inhib	PABP polyA inh	Yeast UUG start	eIF4H FP inh
CCc1nc2c(OCC(=O)C(C)(C)C)cccn2c1N(C)C(=O)C1CC1	2	4	-9	·	·	·	-14	·
NC(=O)C1CCN(CC(O)COc2ccc(-c3ccccc3)cc2)CC1 (stereo unspecified)	1	-3	27	i	10	0	-20	-3
NC(=O)c1ccc(NC(=O)CSc2nc3ccccc3c(=O)n2CCCN2CCOCC2)cc1	3	5	17	·	·	·	-11	·
COc1cc(OC)cc(C(=O)NCCn2ccc3ccccc32)c1	-1	-3	·	i	10	-7	-4	-1
Cc1ccc(Sc2ncccc2C(N)=O)cc1	1	-1	-89	i	-9	·	·	·
CCOC(=O)/C=C1/SCC(=O)N1CC(=O)Nc1cccc(F)c1	-12	0	6	·	-20	·	0	·
O=[N+]([O-])c1ccc(CN2CCN(c3ccc(Cl)cc3)CC2)o1	0	1	-7	·	1	17	-20	11
Cc1ccc(C(=O)NC(=S)Nc2ccccc2N2CCCC2)cc1[N+](=O)[O-]	4	4	8	i	10	3	-20	11
O=C1CC(C(=O)O)S/C(=N\NC(=O)c2ccc(F)cc2)N1 (stereo unspecified)	0	2	15	i	-7	24	-14	-7
CS(=O)(=O)c1ccc(-c2nn[nH]n2)cc1	2	12	·	i	-4	2	-2	-11
Cc1nccn1CCOc1ccc(Cl)cc1	-5	3	7	i	·	-6	-5	-2
OCC(CO)c1cnnc2ccccc12	0	0	-26	·	·	·	-14	·
CCN(CC)S(=O)(=O)c1ccc(/C=C/C(=O)Nc2ccc(Br)cc2F)cc1	-7	-22	42	i	3	4	·	-12
Fc1ccccc1/C=N/n1c(COc2ccccc2)n[nH]c1=S	-4	-4	-5	i	·	4	-15	4
COc1ccc(NC(=O)NC2(C(=O)N3CCOCC3)CCCCC2)cc1	4	2	7	i	-4	-1	-4	7
COc1cc(/C=N/NC(=O)Nc2ccccc2)ccc1OC(C)=O	4	2	-54	i	-3	-3	·	-6
Cc1ccc(C(c2sc3ncnn3c2O)N2CCCCC2)cc1 (stereo unspecified)	0	4	·	i	-34	0	-10	15
Cc1ccc2c(c1)sc1nc(=O)ccn12	-1	0	-6	·	-11	8	-11	-11
COC(CNC(=O)CN1CCN(Cc2ccc(F)cc2Cl)C1=O)OC	3	2	3	i	59	-1	-11	-1
CCC(Cc1ccccc1)NC(=O)CCNS(=O)(=O)c1cc(Br)cnc1N (stereo unspecified)	-4	-5	14	i	-2	·	-7	·
Fc1cccc(-c2nnn3c2nc(Cl)c2ccccc23)c1	-10	-2	-73	·	·	-12	-14	9
CS(=O)CSc1nc2c(cc1C#N)CCCC2 (stereo unspecified)	0	-1	8	i	2	-8	-20	1
Cc1cc(C)cc(C(=O)N(C)C2CCCN(Cc3ccccc3F)C2)c1 (stereo unspecified)	1	-3	-3	i	-3	8	-16	4
COCc1cc(CN2CCN(CCCc3ccccc3)C(CCO)C2)ccc1OC (stereo unspecified)	2	3	-1	i	27	6	-17	2
CC(C)Cc1nnc(NC(=O)CCS(=O)(=O)c2ccc(Cl)cc2)s1	0	-3	11	i	-1	-6	-13	-8
CCOC(=O)c1nnn2c1nc(N1CCN(C)CC1)c1ccccc12	-1	1	10	i	-6	-16	·	-12
COc1ccc(CCN2C(=O)C3C4CC(C5C(C(=O)N/N=C\c6ccc(Cl)cc6)=NOC45)C3C2=O)cc1OC (stereo unspecified)	3	4	·	i	-16	0	·	13
COC(=O)/C=C/CC(C)OS(N)(=O)=O (stereo unspecified)	2	-3	-7	i	-2	2	-15	3
Cc1ccc(NC(=O)c2ccc(Cl)c(NC(=O)c3cccs3)c2)cc1	5	1	-10	i	1	12	7	-2
CCn1c(SCC(=O)NCc2cccs2)nnc1-c1ccco1	-10	11	-117	i	-11	9	-9	-5
CCN(CC)C(=O)CSc1nc(O)c(Cc2ccccc2)c(=O)n1-c1ccccc1C	-2	5	-4	i	4	2	10	-3
CCOC(=O)C1=C(COc2ccc(F)cc2Cl)NC(=O)NC1c1cc(C)ccc1C (stereo unspecified)	-1	-3	·	i	9	-9	-8	2
C=CCOC(=O)C1=C[C@@H](c2ccc(Br)cc2)C[C@@H](OCc2ccc(CO)cc2)O1	4	-5	14	i	3	3	-14	-7
